Bioassay records as filed in PubChem.
DUX4 txn inh: inhibitors of DUX4-driven ZSCAN4 reporter expression, primary screen, 293T cells, Gaussia and Italica luciferase; actives 0.8% (n = 37,000); activity change, negative = inhibition, % (concentration not given with the values); 293T-iDUX4 ZSCAN4-Gaussia luciferase reporter, 24 h; hits give low values;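 active = -10% or lower and over 25 points stronger than a control reporter; inconclusive = -10% or lower with a smaller gap; inactive = above -10%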;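 also: 0% = median of neutral control wells and -100% = median of positive control wells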
DUX4 txn inh difference: further read-out of DUX4 txn inh, marked with its call; Gaussia minus Italica difference, %; measured here: selective DUX4 reporter inhibition;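 worked out from the two reporters; negative = selective loss of the DUX4 reporter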
DUX4 txn inh control: recorded beside DUX4 txn inh, whose call it bears; activity change, negative = inhibition, %; measured here: Italica tet-on control reporter;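 0 = neutral control and -100 = positive control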
The depositor's hits bear a star; ? = inconclusive; . = not tested or not shown. The list is partial, so the mix of outcomes need not match the whole.

The line under a structure holds: DUX4 txn inh	DUX4 txn inh difference	DUX4 txn inh control
> CC(=O)N1[C@H](CO)[C@H](c2ccc(C3=CCCC3)cc2)[C@H]1CNC(=O)CC1CC1
  -1	-4	2.9
> Cc1noc(C)c1NC(=O)N(C)C[C@@H]1OCc2cn(nn2)CCCC(=O)N([C@@H](C)CO)C[C@@H]1C
  3	5	-1.3
> COCC(=O)N1CC2(C1)[C@@H](c1ccc(-c3ccc(F)cc3)cc1)[C@@H](CO)N2C(=O)C1CC1
  -5	-3	-1.6
> COc1ccc2c3c([nH]c2c1)[C@H](CO)N(C(=O)Nc1ccccc1F)CC31CCN(C(C)=O)CC1
  -4	4	-8.1
> C[C@@H]1CCCCO[C@H](CN(C)S(C)(=O)=O)[C@@H](C)CN([C@H](C)CO)C(=O)c2cc(N(C)C)ccc2O1
  0	-3	3.2
> CC(=O)N1[C@@H]2c3ccc(-c4ccc(F)cc4)c(=O)n3C[C@@H]2[C@@H](CO)[C@@H]1C(=O)NC1CCC1
  -3	1	-3.6
> CCC(=O)N1CC2(CN(C(=O)NC(C)C)C2)c2c(n(C)c3cc(OC)ccc23)[C@@H]1CO
  16	13	2.8
> O=C(Nc1ccccc1F)N1CC(=O)N2[C@H](CO)[C@H](c3ccc(C#CC4CC4)cc3)[C@H]2C1
  -3	2	-4.7
> CN(C)CC(=O)N[C@@H]1CC[C@@H](CCNS(=O)(=O)c2ccccc2)O[C@@H]1CO
  1	-3	3.8
> N#C[C@@H]1[C@@H](c2ccc(C3=CCCCC3)cc2)[C@@H](CO)N1S(=O)(=O)c1ccccc1
  0	-2	1.7
> O=C(Nc1ccc2c(c1)[C@@H]1C[C@@H](CC(=O)N3CCOCC3)O[C@H](CO)[C@@H]1O2)Nc1ccccc1F
  4	0	3.1
> CN(C)C(=O)c1cccc(-c2ccc([C@H]3[C@H](CO)N4CCCCN(Cc5cccnc5)C[C@@H]34)cc2)c1
  4	7	-2.6
> C[C@H](CO)N1C[C@H](C)[C@H](CN(C)Cc2cccc3c2OCCCO3)OCc2ccccc2-c2ccccc2C1=O
  -1	-2	1.6
> O=C(Nc1ccc(Cl)cc1)N1C[C@H]2[C@@H](c3ccccc31)[C@@H](CO)N2CC1CCCCC1
  5	5	0.0
> CC(C)C(=O)Nc1ccc2c(c1)C(=O)N(C)[C@@H]1CC[C@@H](CC(=O)NCCc3ccccc3)O[C@@H]1CO2
  -5	0	-5.2
> Cc1noc(C)c1NC(=O)Nc1ccc2c(c1)C(=O)N([C@@H](C)CO)C[C@@H](C)[C@@H](CN(C)S(=O)(=O)c1cn(C)cn1)OCCCC[C@@H](C)O2
  1	7	-5.2
> COc1ccc(-c2ccc3n(c2=O)C[C@@H]2[C@@H](CO)[C@H](C(=O)N(C)C)N(CC4CCCC4)[C@H]32)cc1
  -7	-3	-3.2
> Cc1ccc(S(=O)(=O)Nc2ccc3c(c2)C(=O)N([C@@H](C)CO)C[C@@H](C)[C@H](CN(C)Cc2ccc(C(F)(F)F)cc2)O3)cc1
  -1	0	-0.9
> COc1cccc(-c2ccc3c(c2)[C@@H]2[C@@H](CCN2C(=O)Cc2ccccc2)[C@@H](CO)N3)c1
  ?	.	.
> CCS(=O)(=O)NCC[C@H]1CC[C@H](NC(=O)C2CCOCC2)[C@@H](CO)O1
  -10	-9	-1.0

(cont.)
The line under a structure holds: DUX4 txn inh	DUX4 txn inh difference	DUX4 txn inh control
> CC(C)NC(=O)N1CCCCN2[C@H](C1)[C@@H](c1ccc(C#C[C@H](C)O)cc1)[C@@H]2CO
  7	8	-0.5
> N#C[C@H]1[C@H](c2ccccc2-c2ccccc2F)[C@@H](CO)N1C(=O)Cc1ccccc1
  -8	8	-16
> O=C(c1cccc(F)c1)N1CC(=O)N2[C@H](CO)[C@H](c3ccc(/C=C/c4ccccc4)cc3)[C@@H]2C1
  -9	-1	-8.5
> CC(=O)N1[C@@H]2c3ccc(/C=C/c4ccccc4)c(=O)n3C[C@@H]2[C@@H](CO)[C@@H]1C(=O)Nc1nccs1
  -6	-4	-2.2
> O=C(C[C@@H]1C[C@H]2c3cc(NC(=O)NC4CCCC4)ccc3O[C@H]2[C@H](CO)O1)NCc1ccncc1
  0	-6	5.8
> N#C[C@@H]1[C@H](c2ccc(C#Cc3ccc(F)cc3)cc2)[C@@H](CO)N1C(=O)C1CCCC1
  -3	0	-3.1
> COc1cccc(S(=O)(=O)Nc2ccc3c(c2)[C@@H]2C[C@H](CC(=O)NCCc4ccccc4)O[C@@H](CO)[C@@H]2O3)c1
  ?	.	.
> CN(C)C(=O)c1ccc(-c2ccc3c(c2)[C@H]2[C@H](CCN2C(=O)c2cnccn2)[C@H](CO)N3)cc1
  13	6	7.2
> C[C@@H]1CCCCO[C@@H](CN(C)C(=O)Cc2ccccc2)[C@H](C)CN([C@H](C)CO)C(=O)c2cc(NS(C)(=O)=O)ccc2O1
  -1	-4	3.1
> C/C=C/c1ccc([C@H]2[C@@H](CO)N(S(=O)(=O)c3cccc(F)c3)[C@H]2C#N)cc1
  -3	-9	5.0
> CCCC(=O)Nc1ccc2c(c1)C(=O)N(C)[C@@H]1CC[C@@H](CC(=O)NCCOC)O[C@@H]1CO2
  6	5	0.3
> O=C(C[C@@H]1CC[C@H](NC(=O)Nc2ccc(F)cc2)[C@@H](CO)O1)NCCN1CCCC1
  5	-1	5.8
> CC(=O)N1[C@@H](CO)[C@H](c2ccccc2)C12CN(C(=O)c1ccccc1)C2
  -1	-5	3.3
> Cc1noc(C)c1NC(=O)Nc1ccc2c(c1)C(=O)N([C@H](C)CO)C[C@@H](C)[C@H](CN(C)Cc1ccc3c(c1)OCO3)OCCCC[C@@H](C)O2
  4	6	-1.4
> O=C(c1cccnc1)N1CC[C@H]2[C@H](CO)Nc3ccc(-c4cccc(F)c4)cc3[C@H]21
  8	13	-4.4
> O=C(C[C@H]1CC[C@H]2[C@@H](COC[C@H](O)CN2Cc2cc(F)ccc2F)O1)NCc1ccc(Oc2ccccc2)cc1
  ?	.	.
> Cc1noc(C)c1NC(=O)N[C@H]1C=C[C@H](CC(=O)Nc2ccc(-c3ccccc3)cc2)O[C@H]1CO
  -5	-6	1.6
> O=C(Nc1ccccc1)Nc1ccc2c(c1)[C@@H]1C[C@@H](CC(=O)N3CCCCC3)O[C@H](CO)[C@@H]1O2
  4	-5	9.7
> C[C@@H](NC(=O)C[C@H]1C=C[C@@H](NS(=O)(=O)c2cccc(F)c2)[C@@H](CO)O1)c1ccccc1
  2	-4	6.6
> Cc1noc(C)c1S(=O)(=O)Nc1ccc2c(c1)C(=O)N([C@H](C)CO)C[C@@H](C)[C@@H](CN(C)C(=O)Nc1cccc3ccccc13)OCCCC[C@@H](C)O2
  0	2	-2.2

Further results.
The line under a structure holds: DUX4 txn inh	DUX4 txn inh difference	DUX4 txn inh control
> COCC(=O)N1[C@@H](CO)[C@H](c2ccc(-c3cccc(OC)c3)cc2)C12CN(C(C)=O)C2
  13	11	2.8
> Cc1cccc(S(=O)(=O)N2CC[C@H]3[C@@H](CO)N(C)c4ccc(-c5ccccc5F)cc4[C@H]32)c1
  -4	-6	2.3
> O=C(C[C@@H]1C[C@H]2c3cc(NC(=O)c4ccc5c(c4)OCO5)ccc3O[C@H]2[C@H](CO)O1)NCc1cc(F)ccc1F
  ?	.	.
> COc1cccc(-c2ccc([C@H]3[C@@H](CO)N4CCCCN(CC5CC5)C[C@H]34)cc2)c1
  ?	.	.
> C[C@@H]1CN([C@H](C)CO)C(=O)c2c(c3ccccc3n2C)-c2ccccc2CO[C@H]1CN(C)C(=O)[C@@H]1CCCN1C
  10	14	-3.4
> COc1ccccc1-c1ccc([C@@H]2[C@@H](CO)N(CC3CC3)C23CN(S(C)(=O)=O)C3)cc1
  1	1	-0.1
> CC(=O)N1CC(=O)N2[C@H](C1)[C@H](c1ccc(-c3ccncc3)cc1)[C@@H]2CO
  12	1	11
> CC(C)NC(=O)N(C)C[C@@H]1Oc2c(NS(=O)(=O)c3cccs3)cccc2C(=O)N([C@@H](C)CO)C[C@@H]1C
  1	0	0.6
> O=C(c1ccccn1)N1C[C@H]2[C@@H](c3ccccc31)[C@@H](CO)N2C(=O)C1CCOCC1
  0	1	-0.3
> CN1C(=O)c2cc(NC(=O)c3cnccn3)ccc2OC[C@@H]2O[C@H](CC(=O)N[C@@H]3CCN(Cc4ccccc4)C3)CC[C@H]21
  4	-1	5.3
> C[C@@H](NC(=O)C[C@@H]1C[C@@H]2c3cc(NS(C)(=O)=O)ccc3O[C@@H]2[C@H](CO)O1)c1ccccc1
  -3	-4	1.5
> COc1cccc(C#Cc2ccc3c(c2)O[C@@H](CN(C)C(=O)CN2CCOCC2)[C@@H](C)CN([C@H](C)CO)S3(=O)=O)c1
  2	0	2.2
> CCCN(C)C[C@@H]1Oc2cc(C#Cc3cccnc3)ccc2S(=O)(=O)N([C@@H](C)CO)C[C@H]1C
  0	2	-1.5
> CN(C)CC(=O)N1[C@H](CO)[C@H](c2ccccc2)C12CN(C(=O)c1cccc(F)c1)C2
  -6	-12	6.0
> N#C[C@H]1[C@@H](c2ccc(C#Cc3ccc(F)cc3)cc2)[C@H](CO)N1C(=O)C1CC1
  1	-1	1.8
> C[C@H](CO)N1C[C@H](C)[C@H](CN(C)C(=O)[C@H](C)c2ccccc2)OCc2ccccc2-c2ccccc2C1=O
  ?	.	.
> O=C(C[C@@H]1CC[C@@H](NC(=O)Nc2cc(F)ccc2F)[C@H](CO)O1)Nc1ccc(-c2ccccc2)cc1
  4	1	3.2
> CC(C)NC(=O)Nc1ccc2c(c1)C(=O)N([C@H](C)CO)C[C@H](C)[C@H](CN(C)S(=O)(=O)c1ccc(F)cc1)OCCCC[C@@H](C)O2
  5	2	2.3
> COc1cccc(S(=O)(=O)N2CC[C@@H]3[C@@H](CO)Nc4ccc(Br)cc4[C@@H]32)c1
  -5	-12	7.6
> O=C(C[C@@H]1CC[C@H]2[C@@H](COC[C@H](O)CN2Cc2cccc(C(F)(F)F)c2)O1)NCc1ccc(Cl)cc1
  ?	.	.

Part of the list above in a different format.
canonical_smiles,DUX4 txn inh,DUX4 txn inh difference,DUX4 txn inh control
C[C@@H](NC(=O)C[C@@H]1C[C@@H]2c3cc(NS(C)(=O)=O)ccc3O[C@@H]2[C@H](CO)O1)c1ccccc1,-3,-4,1.5
COc1cccc(C#Cc2ccc3c(c2)O[C@@H](CN(C)C(=O)CN2CCOCC2)[C@@H](C)CN([C@H](C)CO)S3(=O)=O)c1,2,0,2.2
CCCN(C)C[C@@H]1Oc2cc(C#Cc3cccnc3)ccc2S(=O)(=O)N([C@@H](C)CO)C[C@H]1C,0,2,-1.5
CN(C)CC(=O)N1[C@H](CO)[C@H](c2ccccc2)C12CN(C(=O)c1cccc(F)c1)C2,-6,-12,6.0
N#C[C@H]1[C@@H](c2ccc(C#Cc3ccc(F)cc3)cc2)[C@H](CO)N1C(=O)C1CC1,1,-1,1.8
C[C@H](CO)N1C[C@H](C)[C@H](CN(C)C(=O)[C@H](C)c2ccccc2)OCc2ccccc2-c2ccccc2C1=O,?,.,.
O=C(C[C@@H]1CC[C@@H](NC(=O)Nc2cc(F)ccc2F)[C@H](CO)O1)Nc1ccc(-c2ccccc2)cc1,4,1,3.2

More structures.
The line under a structure holds: DUX4 txn inh	DUX4 txn inh difference	DUX4 txn inh control
> CN1C(=O)c2cc(NC(=O)C3CC3)ccc2OC[C@@H]2O[C@@H](CC(=O)NCc3cccc(F)c3)CC[C@H]21
  -1	-1	-0.3
> COCCNC(=O)C[C@H]1C[C@@H]2c3cc(NC(=O)c4ccc5c(c4)OCO5)ccc3O[C@@H]2[C@@H](CO)O1
  4	-2	5.7
> COc1cccc(CN2CCCCN3[C@H](CO)[C@@H](c4ccc(C#Cc5cccnc5)cc4)[C@H]3C2)c1
  ?	.	.
> N#C[C@H]1[C@@H](c2ccccc2)[C@@H](CO)N1C(=O)c1cc(Cl)cc(Cl)c1
  -1	0	-1.5
> COCC(=O)N1CC2(CN(C(=O)c3cccnc3)C2)c2c([nH]c3cc(OC)ccc23)[C@@H]1CO
  9	-1	11
> O=C(C[C@H]1C[C@@H]2c3cc(NC(=O)NC4CCCC4)ccc3O[C@@H]2[C@H](CO)O1)NCCN1CCCCC1
  8	3	4.4
> C[C@H](CO)N1C[C@H](C)[C@@H](CN(C)S(C)(=O)=O)Oc2ccc(NC(=O)Nc3ccc(F)cc3)cc2CC1=O
  0	-2	2.2
> COc1cccc(CNC(=O)[C@@H]2[C@@H](CO)[C@@H]3Cn4c(cccc4=O)[C@H]2N3C(=O)C2CC2)c1
  8	4	4.4
> O=C(C[C@@H]1C[C@H]2c3cc(NS(=O)(=O)c4ccc(F)cc4)ccc3O[C@H]2[C@H](CO)O1)NC1CCCCC1
  -3	2	-5.1
> C[C@H](CO)N1C[C@H](C)[C@H](CN(C)Cc2cccnc2)Oc2ncc(-c3ccc(C#N)cc3)cc2C1=O
  -2	-2	0.4
> O=C(C[C@H]1CC[C@@H]2NC[C@H](O)COC[C@H]2O1)Nc1nccs1
  14	7	7.0
> Cc1ccccc1-c1ccc([C@H]2[C@H]3CN(C(=O)c4cccnc4)CC(=O)N3[C@H]2CO)cc1
  17	7	10.0
> O=C(C[C@@H]1C=C[C@H](NC(=O)NC2CCCCC2)[C@@H](CO)O1)NCc1ccc(F)cc1
  5	5	0.0
> N#C[C@@H]1[C@@H](c2ccccc2-c2ccccc2)[C@H](CO)N1C(=O)Cc1ccccc1
  0	8	-8.0
> CC(C)NC(=O)N(C)C[C@H]1Oc2ccc(NC(=O)Nc3ccc4c(c3)OCO4)cc2CC(=O)N([C@H](C)CO)C[C@@H]1C
  -2	3	-5.0
> Cc1ccc(-c2cnc3c(c2)C(=O)N([C@H](C)CO)C[C@@H](C)[C@H](CN(C)C(=O)Cc2ccccc2)O3)cc1
  -2	-5	3.7
> O=C(C[C@@H]1CC[C@@H]2[C@H](COC[C@@H](O)CN2Cc2ccccc2)O1)NCCCN1CCOCC1
  10	2	8.2
